miR-21 FLuc: miR-21 reporter, rising signal; HeLa miR-21 FLuc reporter, luciferase, 48 h; Potency, µM (series often up to 38.3 µM), without a hit: top-dose reporter change, positive = more light; 340,000 tested, under 10 active; AID 2288; active = well fitted rising curve with a large enough effect; inconclusive = small, poorly fitted or top-dose-only effect; inactive = no such curve, though single readings can be large or run the other way;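 note: % of control where 0% means no effect; miR-21 action dims this reporter so a rising signal means less miR-21 action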
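Using DMEM plus 10% FBS, HeLa miR-21-FLuc cells are incubated with test compounds (final up to about 40uM) for 48 hours; firefly luciferase signal is then imaged following reagent-mediated lysis.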
Rango complex inh: inhibitors of Rango-importin beta complex formation; Rango CFP/YFP FRET sensor + importin beta, 45 min; hit rate 0.031% among 340,000; Potency, µM (doses to about 92.2 µM), for inactives: at the top dose inhibition of complex formation; active = rising FRET ratio curve, often small or poorly fitted; inconclusive = mostly compound fluorescence or quenching in the first reads; inactive = flat curves in all reads;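 note: potency is the fitted concentration of half-maximal effect; 0% = DMSO wells and 100% = buffer wells lacking importin beta; nearly all actives have a fitted effect of over 15% in size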
Target sequence (Q14974 whole entry, looked up): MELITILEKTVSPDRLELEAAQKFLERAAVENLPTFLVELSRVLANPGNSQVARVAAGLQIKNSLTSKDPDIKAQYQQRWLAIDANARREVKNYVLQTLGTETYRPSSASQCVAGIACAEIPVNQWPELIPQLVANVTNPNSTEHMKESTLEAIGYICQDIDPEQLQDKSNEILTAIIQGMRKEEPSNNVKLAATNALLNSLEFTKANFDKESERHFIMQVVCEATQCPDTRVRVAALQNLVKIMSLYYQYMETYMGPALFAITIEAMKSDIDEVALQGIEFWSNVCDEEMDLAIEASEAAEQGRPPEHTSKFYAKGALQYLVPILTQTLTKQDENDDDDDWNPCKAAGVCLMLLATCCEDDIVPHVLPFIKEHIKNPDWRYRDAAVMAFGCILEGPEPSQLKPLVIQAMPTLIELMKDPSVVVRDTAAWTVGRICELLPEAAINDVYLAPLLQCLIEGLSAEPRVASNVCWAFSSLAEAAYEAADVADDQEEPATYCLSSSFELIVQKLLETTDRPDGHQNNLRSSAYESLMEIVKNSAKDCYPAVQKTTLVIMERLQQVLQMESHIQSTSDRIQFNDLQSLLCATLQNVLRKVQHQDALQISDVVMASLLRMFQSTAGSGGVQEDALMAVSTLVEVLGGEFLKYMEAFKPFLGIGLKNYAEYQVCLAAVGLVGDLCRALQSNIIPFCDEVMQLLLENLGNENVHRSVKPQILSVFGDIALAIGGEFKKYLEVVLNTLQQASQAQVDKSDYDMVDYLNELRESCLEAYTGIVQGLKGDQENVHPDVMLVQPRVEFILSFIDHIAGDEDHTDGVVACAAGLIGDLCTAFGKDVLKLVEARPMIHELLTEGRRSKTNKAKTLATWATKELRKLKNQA
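FRET biosensor (snurportin 1 IBB flanked by EYFP and cerulean), 50 nM, with compound 5 min, then 0.125 microM importin beta in PBS, 1 mM DTT, 0.02% Tween-20, 0.1% BSA. CFP/YFP ratio read after 45 min at room temperature; pre-read flags interference.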
Rango release inh: prevents RanGTP from dissociating the Rango-importin beta complex | O95149+P62826 | Biochemical FRET Rango-importin beta, RanGTP-induced dissociation | Potency, µM (titrated, usually from 46.1 µM), for the others: at the highest dose activity change, negative = inhibition | hit rate 0.071% among 340,000; active means falling FRET ratio curve, often poorly fitted, with flat reads before Ran was added; inconclusive means other falling curves, or compound fluorescence or quenching; inactive means flat or rising ratio curve;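 note: potency is the fitted concentration of half-maximal effect; % of control where 0% means no effect; nearly all actives have a fitted effect of over 45% in size; -100% = wells without RanGTP and RCC1; the record marks most hits as doubtful in a second field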
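Compounds preincubate 5 min with complex of recombinant Rango and importin beta in PBS with 1 mM DTT. Ran (0.6 uM) loaded with 2 mM GTP plus 0.2 uM RCC1 starts dissociation; FRET is recorded 45 min later.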
GLA inh pH 4.5: blocks human alpha-galactosidase A at pH 4.5; purified enzyme, 4-MU-alpha-Gal fluorescence, pH 4.5; 230,000 tested, under 10 active; AID 1467; P06280; activity change, negative = inhibition, % at 105 µM; inconclusive = small, poorly fitted or top-dose-only inhibition, or a rising curve; inactive = flat fitted curve, though single readings scatter; no compound was filed as active;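 note: 0% = full activity with enzyme and -100% = basal without enzyme; dose as in the result columns while the protocol names 77 µM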
Starred values were filed as active, the others as inactive; ? = inconclusive; . = not tested or not shown; & = joins results of further samples. A portion of the library, so the mix of outcomes need not match the whole.

SMILES	miR-21 FLuc	Rango complex inh	Rango release inh	GLA inh pH 4.5
C/C(CC1CC(C)(C)OC1=O)=N/Nc1nc(-c2ccccc2)cs1 (stereo not given)	-25%	2.9%	-3%	3
COc1ccc2[nH]c(C(=O)O)c(CCN3C(=O)c4ccc(C(=O)O)cc4C3=O)c2c1	-21%	-2.4%	-4%	.
O=C1CCN(Cc2ccc([N+](=O)[O-])cc2)CCN1[C@H](CO)c1ccccc1	2%	-2.1%	-6%	.
O=C(Nc1cccnc1)c1cc2cc(Br)ccc2o1	-56%	2.7%	46%	.
O=C(CCC(=O)N1CCN(c2ccc(F)cc2)CC1)N1CCN(c2ccc(F)cc2)CC1	0%	5.4%	12%	.
COc1ccc(NC(=S)Nc2ccc(N(C)C(C)=O)cc2)cc1	0%	-1.7%	2%	-8
Cc1cc(SCC(N)=O)nc(SCC(=O)c2ccccc2)n1	-7%	-0.6%	6%	-1
Cc1nn(C)c(C(=O)Nc2ccc(S(=O)(=O)NC34CC5CC(CC(C5)C3)C4)cc2)c1Br	-6%	-0.4%	0%	22
CC1C(=O)N2CCCc3cc(S(=O)(=O)N4CCN(c5cccc(Cl)c5)CC4)cc1c32 (stereo not given)	.	0.0%	-1%	.
Cc1cc(C)nc(N/N=C/C=C/c2ccccc2)n1	-41%	2.8%	0%	4
CC(Oc1ccc2c(-c3ccccc3)cc(=O)oc2c1)C(=O)NCC1CCC(C(=O)O)CC1 (stereo not given)	-18%&-13%	2.1%&-2.0%	2%&10%	.
Cn1c(SCC(N)=O)nnc1C1CCN(C(=O)NCc2ccccc2)CC1	-2%	0.6%	1%	0
CCOCc1nnc(NC(=O)c2c(OC)cccc2OC)s1	-1%	4.1%	3%	1
C/C=C/c1ccc(OCCOc2ccc(C=O)cc2)c(OC)c1	-30%	-4.3%	4%	0
O=S(=O)(NCc1ccc2c(c1)OCO2)c1ccc2oc3ccccc3c2c1	.	6.1%	17%	.
CCOC(=O)c1c(NCC2CCCO2)c2ccccc2[nH]c1=O (stereo not given)	2%	4.7%	13%	14
COc1ccc(CCn2c(-c3cc([N+](=O)[O-])cc([N+](=O)[O-])c3)nc3nc4ccccc4nc32)cc1	1%	1.3%	-9%	4
O=C(c1ccc(F)cc1)N1CCCC(c2nc(-c3ccncc3)no2)C1 (stereo not given)	.	0.8%	1%	.
COCCCNc1nc(N)c([N+](=O)[O-])c(NCC2CCCO2)n1 (stereo not given)	-6%	-1.2%	20%	-3
O=C1c2ccccc2NC(c2cn[nH]c2-c2ccccc2)N1O (stereo not given)	-12%	-0.3%	-11%	-8
COc1ccc(OC)c(-c2nnc3n2N=C(c2ccc(OC)c(OC4CCOC4)c2)CS3)c1 (stereo not given)	.	-0.4%	-4%	.
COCCNC(=S)NNc1ccc(Cl)c(C(=O)O)c1	-1%	1.1%	1%	-5
Cc1ccc(S(=O)(=O)NC(C)(C)CSc2ncccn2)cc1	0%	-1.0%	13%	-2
CN(Cc1cccc2ncccc12)C(=O)CC1C(=O)NCCN1Cc1ccc(F)cc1 (stereo not given)	1%	0.5%	0%	3
O=C(Cn1cnc2ccccc2c1=O)Nc1ccc(N2CCOCC2)cc1	4%	-0.4%	-7%	5

Profiles as entered above:
COc1ccc2[nH]c(C(=O)O)c(CCN3C(=O)c4ccc(C(=O)O)cc4C3=O)c2c1 as listed: miR-21 FLuc: -21%; Rango complex inh: -2.4%; Rango release inh: -4%; GLA inh pH 4.5: .
O=C1CCN(Cc2ccc([N+](=O)[O-])cc2)CCN1[C@H](CO)c1ccccc1 as listed: miR-21 FLuc: 2%; Rango complex inh: -2.1%; Rango release inh: -6%; GLA inh pH 4.5: .

Next part.
SMILES	miR-21 FLuc	Rango complex inh	Rango release inh	GLA inh pH 4.5
Cc1cc(N2CCOCC2)n2ncc(-c3ccccc3Cl)c2n1	-66%	0.9%	-2%	.
Cc1nn(CC(=O)NCCc2ccc(Cl)cc2Cl)c(C)c1[N+](=O)[O-]	-1%	0.2%	-6%	1
Cc1ccc(Nc2nc(N3CCN(C)CC3)nc(N)c2[N+](=O)[O-])cc1C	-5%	.	.	8
Cc1c(C(=O)OCC[N+]2(C)CCCCC2)oc2ccccc12	-3%	-1.3%	-10%	-4
Cc1nn(C)cc1S(=O)(=O)Nc1ccccc1Br	-3%	8.0%	19%	.
COc1ccccc1C1CC(=O)Nc2cc3c(cc21)OCCO3 (stereo not given)	27%	1.2%	8%	-3
O=C(O)C(c1ccccc1)C1(O)CCCC1 (stereo not given)	-9%	-1.7%	-10%	0
CCOc1ccccc1-n1c(COc2ccccc2)nnc1SCC(N)=O	-5%	8.1%	-4%	3
Cc1ccc(CN2CCN(CCC(C)C)C(CCO)C2)s1 (stereo not given)	-1%	3.5%	14%	2
CCOC(=O)c1sc(NC(=O)CCCCl)nc1C	-11%	0.1%	-15%	-3
Cc1oncc1C(=O)Nc1cccc2ccccc12	-11%	0.4%	1%	.
O=C(CCl)Nc1cn(-c2ccccc2)nc1-c1ccc(F)cc1	?	0.2%	1%	5
Cc1cccc(NC(=O)c2ccc(NCCO)c([N+](=O)[O-])c2)n1	-34%	-3.4%	19%	10
c1ccc(COc2ccc(OCCCN3CCCC3)cc2)cc1	5%	8.6%	-8%	-3
CCN(CC)c1ccc(NC(=O)COc2ccc(C#N)cc2)cc1S(=O)(=O)Nc1ccc(OC)cc1	0%	1.4%	6%	-14
Cc1ccccc1N1CCN(C2CCCN(C(=O)c3cnsn3)C2)CC1 (stereo not given)	-1%	0.9%	-2%	.
CN(C)S(=O)(=O)c1ccc(S(=O)(=O)N(CC(=O)Nc2ccccc2)CC2CCCO2)cc1 (stereo not given)	-3%	-0.3%	1%	-22
Cn1c(=O)c2c(ncn2CCCc2ccccc2)n(C)c1=O	-3%	-1.0%	7%	-7
O=C(Nc1ccc(C(=O)O)cc1)/C(=C\C=C\c1ccccc1)NC(=O)c1cccc(Br)c1	-6%	-3.1%	12%	5
COc1ccccc1NS(=O)(=O)c1cc(NC(=O)c2cnccn2)ccc1N1CCOCC1	-18%	-2.7%	-16%	-12
CC1C(=O)N(Cc2ccccc2)c2ccccc2N1C(=O)c1ccccc1 (stereo not given)	16%	-3.2%	7%	.
O=C(CCCc1nc(-c2ccc(Cl)cc2)no1)Nc1cccnc1	22%	2.6%	-14%	1
Cc1cc(OC(C)C(=O)N(Cc2cccs2)C2CCS(=O)(=O)C2)ccc1Cl (stereo not given)	-2%	2.7%	15%	.
O=c1[nH]c(C2CCCN(S(=O)(=O)c3ccccc3)C2)nc2c1nnn2Cc1cccc(Cl)c1 (stereo not given)	-12%	0.2%	5%	.
CCS(=O)(=O)N1CCN(S(=O)(=O)c2ccccc2)CC1	-1%	-3.3%	-20%	-2
SMILES	miR-21 FLuc	Rango complex inh	Rango release inh	GLA inh pH 4.5
Cc1nn(CCCC(=O)NCc2ccc(F)cc2)c(=O)c2nccn12	0%	-0.3%	-9%	.
CN1C(=O)/C(=C/c2ccc(OCc3cccc(F)c3)cc2)NC1=S	9%	-4.6%	-9%	.
COc1cccc(CNC(=O)C2CCN(c3ncnc4c3nc3n4CCCCC3)CC2)c1	1%&0%	-0.2%	-16%	.
CC(=O)C1C(c2ccc(F)c(F)c2)NC(=O)NC1(O)C(F)(F)F (stereo not given)	-3%	2.6%	19%	-11
O=C(CCSc1ccccc1)NC1CCCC1	-2%	-1.9%	8%	-2
CC(=O)c1csc(CS(=O)(=O)c2ccccn2)n1	-4%	0.4%	-8%	-2
O=C(Cn1cc2c(n1)CCCC2)NCCCN1CCN(c2ccccc2F)CC1	-4%	0.2%	0%	-4
COc1cccc(-c2cn(-c3cccc(C(F)(F)F)c3)c(=S)[nH]2)c1	5%	3.3%	2%	.
CCOC(=O)Cn1nnnc1C(CC)N(Cc1cccs1)Cc1cc2ccc(OC)cc2[nH]c1=O (stereo not given)	-24%	-2.8%	12%	2
C=CCn1c(CNC(=O)c2ccccc2C)nnc1SCC(=O)NC1CCCC1	-6%	-0.4%	11%	-15
O=C(NCCN1C(=O)S/C(=C\c2ccc(OC(F)F)cc2)C1=O)[C@@H]1CCCN1C(=O)c1cccs1	-1%	-1.7%	5%	-4
Cc1c(O)c2ccccc2n(-c2ccccc2)c1=O	.	-2.1%	-12%	.
Cn1c(CCNC(=O)c2ccccc2Cl)n[nH]c1=S	1%	1.3%	-26%	10
COc1cccc(C(=O)Nc2nnc(-c3ccccc3)s2)c1	-62%	-6.2%	5%	.
Cc1cccc(C2c3[nH]c4ccccc4c3CCN2C(=O)c2ccc(=O)[nH]c2)n1 (stereo not given)	-3%	1.3%	-16%	6
CC(=O)Nc1nc2ccccc2n1CCN1CCOCC1	-4%	?	6%	2
Cn1cnc(S(=O)(=O)N2CCN(c3ccccc3)CC2)c1	0%	-1.1%	10%	.
COc1ccc(C(=O)Nc2cc(Cl)ccc2C(=O)O)cc1	-4%	0.1%	-7%	-6
COc1ccc(NS(=O)(=O)c2cccc(Cl)c2)cc1S(=O)(=O)N1CCCCC1	17%	0.3%	0%	-1
CC(OC(=O)c1cnccn1)C(=O)Nc1nc(-c2cccc([N+](=O)[O-])c2)cs1 (stereo not given)	.	-0.3%	6%	.
CN(CC(=O)Nc1cccc(F)c1)C(=O)c1ccc2c(c1)CC(c1ccccc1)OC2=O (stereo not given)	.	4.2%	15%	.
COc1ccc(/C=C2/C(=O)ON=C2C)cc1Cl	4%	-1.4%	21%	.
O=c1cc(Cc2ccc([N+](=O)[O-])cc2)[nH]c(=O)[nH]1	.	-3.0%	1%	.
CCc1cc(=O)oc2cc(C)cc(OC(C)C(=O)NCC(O)c3ccccc3)c12 (stereo not given)	-4%	-3.4%	-20%	.
COc1ccc(C)cc1NC(=O)CCCN1C(=S)NC(C)(C)CC1C (stereo not given)	-7%	0.3%	3%	-4
SMILES	miR-21 FLuc	Rango complex inh	Rango release inh	GLA inh pH 4.5
COc1ccc(OC)c(-c2cc(C(=O)NCc3ccc(Cl)cc3)no2)c1	-3%&4%	3.0%	-2%	5
Cc1ccccc1NC(=O)N1CCN(C(=O)c2ccco2)CC1	-3%	0.4%	-19%	1
CCCNC(=O)c1onc(CSc2ccncc2)c1C(=O)NCCC	6%	1.9%	1%	7
O=C(NC(Cc1ccccc1)C(=O)O)/C(=C\c1ccccc1F)NC(=O)c1ccccc1 (stereo not given)	-2%	-3.7%	-1%	1
COc1ccc(NC(=O)N2C3CCCC2CC(NC(=O)c2ccccc2)C3)cc1 (stereo not given)	-3%	0.0%	-1%	.
CN1c2ccc(C=O)c3c(C=O)ccc(c23)N(C)C1(C)C	?	?	?	.
Nc1c(-c2cccc([N+](=O)[O-])c2)nc2ccccn12	-61%	1.6%	1%	8
CCOC(=O)c1ccc(N2C(=O)C=CC2=O)cc1	26%	2.5%	-3%	-1
O=C(NN=C1CCCCC1)NC1CCCCC1	-13%	-0.3%	18%	6
CCOc1ccc(-c2nnn(CC(=O)NCCc3c[nH]c4ccccc34)n2)cc1	6%	0.9%	-8%	-3
CCOC(=O)N1CCN(C(=S)Nc2ccc3nc(N4CCN(CC)CC4)cc(C)c3c2)CC1	-8%	-2.3%	-1%	0
COc1ccc(CCNC(=O)COC(=O)c2cc(S(=O)(=O)N3CCOCC3)ccc2C)cc1OC	.	-1.4%	1%	.
CC(C)CCOP(=O)(c1ccc(N(C)C)cc1)C(O)c1c(Cl)cccc1Cl (stereo not given)	17%	-0.7%	3%	.
O=C(OCc1ccccc1Cl)c1ccccc1C(=O)c1ccccc1	-43%	-2.5%	-3%	8
O=C(CCc1ccccc1)N[C@@H]1c2ccccc2CC[C@H]1OCc1ccccc1	.	-0.3%	29%	.
Cc1n[nH]c(=S)n1/N=C/c1ccccc1OCc1ccc(Cl)cc1Cl	-2%	0.4%	15%	-4
Cc1ccc(-n2c(SCC(=O)OC(C)C)nnc2-c2ccccn2)cc1	-1%	-2.7%	15%	-2
COc1ccc(NC(=O)/C(Cl)=C(/Cl)S(=O)Cc2ccc(C)cc2)cn1 (stereo not given)	?	.	.	-2

Taken from above:
CCOCc1nnc(NC(=O)c2c(OC)cccc2OC)s1 @ Rango release inh = 3%
COc1cccc(CNC(=O)C2CCN(c3ncnc4c3nc3n4CCCCC3)CC2)c1 @ miR-21 FLuc = 1%&0%
